# Bioassay records (PubChem BioAssay)
# Menin MLL FP FL: inhibitors of human menin-MLL interaction, wild-type MLL peptide | Fluorescence polarization, fluorescein-MLL peptide displacement from menin | FP activity change, % at 61.4 µM | 290,000 tested, under 10 active | AID 1766; inconclusive = falling polarisation curve, or a change in total fluorescence; inactive = total fluorescence flat and polarisation flat or rising; no compound was filed as active; the % refers to the polarisation; negative = inhibition;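 also: % of control where 0% means no effect; inhibitors lower the polarisation; unlabelled MLL peptide was the positive control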
# ClpP mod: qHTS Assay for Activators of ClpP; ATP-dependent Clp protease proteolytic subunit (Bacillus subtilis (strain 168)), P80244; purified B. subtilis ClpP, FRET peptide cleavage, 20 min; Potency, µM (series often up to 57.5 µM), inactives show at the highest dose activity change, negative = active; actives 1.9% (n = 340,000); active = well fitted falling curve with a large enough effect; inconclusive = small, poorly fitted or top-dose-only effect; inactive = no such curve, though single readings can be large or run the other way; also: potency is read from the fitted curve at half-maximal effect; the source files actives as falling curves though it sought activators and does not explain the sign; nearly all actives have a fitted effect of over 65% in size; many hits overshoot -100%
# Target sequence (P80244 whole entry, looked up): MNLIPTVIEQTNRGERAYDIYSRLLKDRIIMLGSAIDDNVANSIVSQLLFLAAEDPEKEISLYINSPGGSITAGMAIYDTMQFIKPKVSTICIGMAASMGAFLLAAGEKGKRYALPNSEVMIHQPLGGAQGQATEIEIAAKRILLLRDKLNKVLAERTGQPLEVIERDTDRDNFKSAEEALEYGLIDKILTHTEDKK
#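 Purified B. subtilis ClpP, 10 microg/mL final in Tris/HCl pH8 with KCl, BSA, glycerol and Tween-20, cleaved an Abz/nitrotyrosine-quenched decapeptide. Fluorescence (ex 320, em 430) was read at 0 and 20 min at room temperature. Delta was normalized to 5.8 microM ADEP and DMSO/no-enzyme controls.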
# TRPML1 inh: human mucolipin-1 channel inhibition | activity change, negative = inhibition, % (test concentration not listed) | AID 624415 | Q9GZU1 | TRPML1-inducible cells, Ca2+ dye fluorescence, FDSS; active compounds read low; inhibition of EC80 agonist-evoked calcium signal | actives 0.02% (n = 390,000); in the data active means activity change below about -50%; inconclusive means about -30% to -50%; inactive means above about -30%;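 also: stimulus is agonist 54-4 at its EC80 concentration; % is scaled to controls: 0 for no effect and ±100 for the full control effect; compound concentration not given in the record; the text of the record puts the active cut at -80%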
#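 TRPML1-DL cells, Tet-induced overnight (~16 h, 37 °C) at 1,500 cells/well, were loaded with Ca8 no-wash dye plus quencher for 45-90 min at room temperature. Compounds were pinned during FDSS kinetic reading; agonist 54-4 at EC80 (4 uM final) then added.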
# TRPML1 ag: human mucolipin-1 channel agonism. TRPML1-expressing cells, Ca2+ dye fluorescence, FDSS; host cell line not named in the record; reference of the full effect not given here. activation, % (test concentration not listed). Q9GZU1. actives 0.12% (n = 410,000); in the data active = activation above about 50%; inconclusive = about 30% to 50%; inactive = below about 30%; also: 0% is about no effect; the text of the record puts the active cut at 80%
#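 In this qHTS format, compounds were pin-transferred onto Ca8-dye-loaded TRPML1-DL cells induced with Tet overnight, and intracellular Ca2+ fluorescence was recorded kinetically for 110 s after a 10 s baseline. A subsequent 4uM final 54-4 (EC80) addition followed by a second 110 s read served as the antagonist phase.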
# TRPV1 potentiator: potentiators of human vanilloid receptor 1 (TRPV1) | Q8NER1 | potentiation, % at 8.33 µM | TRPV1-expressing cells, Fluo-8 calcium influx, capsaicin EC20 potentiation; host cell line not named in the record; control for the full effect not named in the record | AID 540277 | actives 0.02% (n = 320,000); active means potentiation above 80%; inconclusive means 30% to 80%; inactive means below 30%; also: 0% is about no effect
# Target sequence (Q8NER1 whole entry, looked up): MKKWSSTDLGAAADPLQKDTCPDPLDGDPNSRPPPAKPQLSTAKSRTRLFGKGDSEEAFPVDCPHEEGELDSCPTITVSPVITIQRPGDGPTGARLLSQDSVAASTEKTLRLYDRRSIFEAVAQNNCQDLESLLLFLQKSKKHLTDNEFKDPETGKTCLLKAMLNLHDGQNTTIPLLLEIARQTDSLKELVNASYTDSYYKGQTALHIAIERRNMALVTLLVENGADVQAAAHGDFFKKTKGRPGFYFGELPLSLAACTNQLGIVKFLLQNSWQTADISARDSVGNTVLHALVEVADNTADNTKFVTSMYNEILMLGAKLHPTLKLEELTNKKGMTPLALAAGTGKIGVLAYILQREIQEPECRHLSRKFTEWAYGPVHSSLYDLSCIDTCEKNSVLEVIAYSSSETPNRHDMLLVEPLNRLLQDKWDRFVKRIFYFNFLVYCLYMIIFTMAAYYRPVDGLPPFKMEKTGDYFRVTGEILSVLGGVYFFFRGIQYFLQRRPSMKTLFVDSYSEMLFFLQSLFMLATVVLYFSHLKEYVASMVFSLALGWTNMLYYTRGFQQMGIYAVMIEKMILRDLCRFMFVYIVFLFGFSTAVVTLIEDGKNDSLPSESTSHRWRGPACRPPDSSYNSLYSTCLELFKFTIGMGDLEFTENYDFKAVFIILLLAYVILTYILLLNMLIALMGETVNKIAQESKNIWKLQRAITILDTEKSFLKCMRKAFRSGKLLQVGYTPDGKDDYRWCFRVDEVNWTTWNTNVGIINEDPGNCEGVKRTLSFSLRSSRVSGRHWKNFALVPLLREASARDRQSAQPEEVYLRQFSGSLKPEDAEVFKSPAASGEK
#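 Cells expressing TRPV1 were dye-loaded with Fluo-8 and read kinetically: 10 s baseline, 3 min after compound (agonist portion), then 2 min after EC20 capsaicin (allosteric enhancer portion). Calcium-bound dye fluorescence at 480/520 nm.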
# PINK1 expr mod: modulators of PINK1 expression | PINK1 immunofluorescence, high-content cytometry, 24 h | Potency, µM (top dose mostly 76.6 µM), without a hit: top-dose activation (PINK1 increase), hits mostly activators | actives 0.2% (n = 410,000) | AID 624263; active = well fitted activation curve with a large enough effect; inconclusive = small, poorly fitted or top-dose-only effect; inactive = flat fitted curve, though single readings scatter; cell line not stated here;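 also: potency is read from the fitted curve at half-maximal effect; % of control where 0% means no effect; nearly all actives have a fitted effect of over 65% in size; a mitochondrial uncoupler was the plate control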
#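 Measures PINK1 amount and localization on or inside mitochondria by immunofluorescence. Stable cells get compounds at 5 concentrations for 24 hours before fixation and staining; CCCP controls included.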
# Sfp inh: Sfp phosphopantetheinyl transferase inhibition | Potency, µM, for inactives: max response, negative = inhibition, most hits filed as inhibitors | AID 1490 | actives 3.5% (n = 310,000) | Biochemical Sfp PPTase activity, qHTS; active = well fitted inhibition curve with a large enough effect; inconclusive = small, poorly fitted or top-dose-only effect, or another doubt; inactive = no such curve, though single readings can be large or run the other way;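 also: the enzyme is Sfp with the accession as filed and its product quenches rhodamine fluorescence; potency is read from the fitted curve at half-maximal effect; 0% = enzyme reaction without inhibitor and -100% = no enzyme wells; top concentration of the series not given in the record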
#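 Fluorescence-quenching assay with 15 nM Sfp, 5 uM rhodamine-CoA and 12.5 uM BHQ-2-labelled ybbR peptide in pH 7.6 Hepes/MgCl2 buffer. Enzyme was pre-incubated with compound for 15 min at room temperature. Rate was taken from the 30-min fluorescence change (525/598 nm).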
# * marks the source's active call; other numbers are inactive results; ? = inconclusive; . = not tested or not shown; & = joins results of further samples; [ ] = remark or other dose. Hits appear at their usual frequency (roughly 4.4% active in at least one column).
SMILES,Menin MLL FP FL,ClpP mod,TRPML1 inh,TRPML1 ag,TRPV1 potentiator,PINK1 expr mod,Sfp inh
CCOC(=O)N1CCN(C(=O)CN2C(=O)COc3ccc(C(C)(C)C)cc32)CC1,-3.6,0.0%,28,1.2,10,2.0%[38.3 µM],-10%
N#Cc1cnn2c3c(cnc12)C(=O)N1CCc2ccccc2C1C3 (configuration not stated),4.9,.,3,-0.5,-6,2.7%,17%
CCOC(=O)c1sc2ncn(C(CC)C(=O)OC)c(=O)c2c1C (configuration not stated),1.6,-1.2%,-9,4.4,7,3.4%[38.3 µM],-13%
Cc1cccc(CNC(=O)Cn2nc(C)n3c(cc4cc(F)ccc43)c2=O)c1,.,?,-21,-0.1,.,3.0%,.
O=C(CC(=O)Nc1ccc(Br)cc1)Nc1ccc(Br)cc1,2.6,-1.9%,11,0.8,10,0.9%,5%
COc1cccc(N2C(=O)CSC23C(=O)N(CC(=O)Nc2cc(C)ccc2C)c2ccccc23)c1 (configuration not stated),.,-1.2%,1,1.9,.,2.3%,.
CCOc1ccc(C2CC(c3ccccc3)Nc3nc(N)nn32)cc1 (configuration not stated),0.4,-2.4%,0,0.9,16,4.9%,13%
CC(C)(C)NC(=O)/C(=C/c1cccnc1)NC(=O)c1ccco1,1.6,0.5%,21,-0.3,-13,-0.2%,16%
Cc1ccc(/C=N/NC(=O)c2ccoc2C)s1,10,-2.5%,-6,-0.2,-22,1.2%,2%
CCCCNCc1cc(Br)c(OCc2cccs2)c(OC)c1,1.8,-1.4%,52,1.7,10,7.7%,8%
Cc1cccc(/C(N)=N/OC(=O)COc2ccccc2Cl)c1,1.0,-6.7%,17,0.9,-5,1.3%,12%
Cc1cccc(Cn2cnc3c(N)c(C)c(C)cc32)c1,5.2,.,2,-0.3,-1,0.3%,-2%
Cc1ccccc1NC(=O)Cc1nc(COC(=O)COc2cccc(C)c2C)cs1,.,.,21,2.9,?,4.5%,.
CCN(CC)S(=O)(=O)c1ccc2c(c1)nc(CCC(=O)Nc1ccc(N3CCOCC3)cc1)n2C,-1.6,.,3,1.3,5,3.3%,-27%
CCCc1[nH]n(-c2ccc(F)cc2)c(=O)c1C=Nc1cccc(F)c1,.,-2.6%,13,-0.5,6,13%,-9%
COc1cccc(-c2cc3c(-n4cccc4)ncnc3o2)c1,3.6,14µM*,30,3.0,7,-1.6%,22µM*
Cc1ccc(S(=O)(=O)n2ccc3c2CCCC3=O)cc1,4.7,.,-13,0.6,-13,6.8%,-1%
O=[N+]([O-])c1cc(-c2nnc(Nc3ccccc3)c3ccccc23)ccc1N1CCOCC1,3.4,4.4%,39,2.2,3,-0.8%,3%
CCOc1ccc(C2=C(C(=O)CC)Sc3nncn3N2C(=O)CC)cc1,.,0.7%,-23,2.2,.,0.2%,.
CCNC(=O)NC(=O)C(C)OC(=O)CCCSc1nc2ccccc2s1 (configuration not stated),4.5,-0.4%,4,0.3,-4,-0.1%,5%

# Full records from above.
# Cc1cccc(Cn2cnc3c(N)c(C)c(C)cc32)c1 in the list: Menin MLL FP FL = 5.2; ClpP mod = .; TRPML1 inh = 2; TRPML1 ag = -0.3; TRPV1 potentiator = -1; PINK1 expr mod = 0.3%; Sfp inh = -2%
# CCOC(=O)c1sc2ncn(C(CC)C(=O)OC)c(=O)c2c1C (configuration not stated) in the list: Menin MLL FP FL = 1.6; ClpP mod = -1.2%; TRPML1 inh = -9; TRPML1 ag = 4.4; TRPV1 potentiator = 7; PINK1 expr mod = 3.4%[38.3 µM]; Sfp inh = -13%

# Further structures follow.
SMILES,Menin MLL FP FL,ClpP mod,TRPML1 inh,TRPML1 ag,TRPV1 potentiator,PINK1 expr mod,Sfp inh
Cc1ccc(-n2ncc(C(=O)NCc3ccccn3)c2C2CCN(C(=O)OC(C)(C)C)CC2)c(C)c1,.,-1.4%,12,0.9,.,-2.1%,.
C(=N\Nc1ccccn1)/c1c[nH]c2ccccc12,1.4,.,-14,-0.2,13,-1.7%,?
Cc1ccc(-c2cc(C(=O)Nc3ccccc3C(N)=O)c3ccccc3n2)o1,.,.,-1,0.8,.,1.0%,.
COc1cccc(NC(=O)C(OC(=O)/C=C/c2ccc3c(c2)OCO3)c2ccccc2)c1 (configuration not stated),2.6,32µM*,3,1.5,9,.,-3%
NC(=O)c1ccccc1NC(=O)CCCc1ccccc1,1.3,.,20,-0.3,-8,2.3%,19%
CC(=O)/C(=N/Nc1ccc(C)cc1)Sc1nnc(CCc2ccccc2)n1-c1ccccc1,2.7,.,37,4.1,-2,2.7%,-1%
CC(O)[C@@H](C(=O)N1CCNCC1)n1cc(CCCCN)nn1 (some centres not stated),-0.8,-2.1%,4,-0.5,16,-0.3%,7%
COc1cc(OC)cc(-c2c(Sc3ccccc3)c3cc(-c4ccc(SC)cc4)ccc3n2C)c1,.,9.1%,.,0.0,.,1.5%,.
O=C(CN(C(=O)CNS(=O)(=O)c1ccccc1)c1ccc2c(c1)OCCO2)NCc1ccco1,2.2,1.2%,16,-0.6,-9,2.0%,15%
CC1Cc2ccccc2N1C(=O)COC(=O)Cc1ccc(F)cc1 (configuration not stated),.,-0.8%,-8,-0.8,-5,1.6%,.
COc1ccc(C(=O)N2CCCC(c3ccccc3)=N2)cc1,0.0,.,-6,0.5,8,-3.4%,-24%
Cn1c(S(=O)(=O)O)nc2ccccc21,3.2,.,18,1.4,8,0.1%,4%
O=C(c1cccs1)c1c[nH]cc1-c1ccccc1,.,.,13,0.8,.,0.1%,.
O=C(Cn1cc(C(=O)c2ccco2)c2ccccc21)NC1CCCCC1,1.2,2.2%,38,-0.2,-10,1.9%,-19%
COc1ccc(C(=O)Oc2ccc3ccc(=O)oc3c2)cc1OC,-8.4,.,16,0.9,15,8.9%,16%
O=C(O)c1cc(=O)n(Cc2ccccc2)c(=O)[nH]1,-1.8,-0.3%,5,-0.7,7,0.0%,?
Cc1ccc(CCNC(=O)c2cc3c(-c4ccccc4F)nn(C)c3s2)cc1,.,4.3%,1,1.1,.,4.3%,.
CCOc1cc2[nH]c(=O)n(CCCC(=O)NCc3ccc(OC)cc3)c(=O)c2cc1OCC,-1.8,?,-14&26,0.0&0.9,-6,1.0%,-16%
CCc1ccc(NC(=O)Cn2nc(C(=O)O)c3ccccc3c2=O)cc1,-0.6,.,13,1.3,-29,2.2%,8%
CCc1noc(C)c1C(=O)OCC(=O)NC(=O)c1ccccc1OC,.,-29%,-9,-0.6,3,0.3%,9%
COc1ccc(S(=O)(=O)N2CCOC2CNC(=O)C(=O)NCCc2ccccc2)cc1C (configuration not stated),-0.2,0.1%,-8,0.2,-10,5.8%,-1%
COc1cc(-c2nc3ccccn3c2/N=C/c2cccc(F)c2)ccc1O,2.4,-14%,5,-0.6,?,7.2%,-19%
Cn1c(Cc2cccs2)nnc1SCC(=O)Nc1ccc(C(N)=O)cc1,.,-2.5%,5,0.6,0,1.2%,.
CSc1cc(-c2ccc(Cl)cc2)c(C(=O)NC(C)C)s1,0.6,-2.0%,-3,0.7,.,5.7%,6%
COC(=O)CC1(C(=O)OC)Oc2ccc(Br)cc2C(=O)N1c1cc(Cl)cc(Cl)c1 (configuration not stated),-1.5,.,8,1.2,1,5.1%,-3%
NC(=O)c1cccnc1OCC(F)(F)F,4.1,.,15,1.0,.,-2.0%,7%
O=C(CCCC(=O)c1ccccc1)NCc1ccccc1,-5.3,2.2%,-15,0.8,-3,-0.5%,4%
O=C(c1ccccc1F)N(Cc1ccccc1)C1CCS(=O)(=O)C1 (configuration not stated),-2.2,-1.4%,3,0.2,6,1.0%,9%
Cc1ccccc1C(=O)Nc1ccnn1C1CCN(Cc2cccnc2)CC1,0.0,-2.0%,16,0.0,3,1.1%,13%
C[C@]12C=CC(=O)C=C1CC[C@@H]1[C@@H]2C(=O)C[C@@]2(C)[C@H]1CC[C@]2(O)C(=O)CO,?,-1.6%&0.2%,9&2,2.1&-0.5,-5&4,0.7%&-0.4%,5%&12%
COC(=O)CSc1nnc(CNC(=O)c2ccc(OC)c(OC)c2)n1C,-3.3,.,-5,0.2,-12,0.2%,14%
Cc1cc(=O)oc(C)c1C(=O)NCc1ccc(F)cc1,3.7,-0.5%,2,2.9,1,6.5%[38.3 µM],-7%
O=C1CSc2ccccc2N1Cc1ccc(F)cc1,-1.7,1.0%,10,0.7,-2,7.1%[38.3 µM],2%
CCNC(=O)C1CC(=O)N(Cc2ccc(F)cc2)C(=Nc2ccc(OC)cc2)S1 (configuration not stated),-0.2,-1.1%,1,-0.4,20,.,9%
COc1ccc(-c2nnc(SCc3nnc(-c4ccccc4)o3)n2C)cc1OC,1.5,0.3%,3,-0.3,-14,-0.8%,16%
COC(C[C@@H](O)CC(=O)[C@@H](C)OCc1ccccc1)OC,1.4,-4.3%,-8,-0.4,?,0.8%,14%
c1ccc(CCn2nnnc2C(c2cccnc2)N2CCOCC2)cc1 (configuration not stated),-3.4,-5.1%,6,0.3,7,-0.1%,15%
CCCN(CCC)C(=O)COc1cc(=O)n(CC)c2ccccc12,2.5,-6.1%,-23,2.8,-16,1.1%,9%
COCCNC(=S)N1CCN(C/C=C/c2ccccc2)CC1,-4.2,-0.8%,-8,3.6,-3,5.1%,10%
Cc1sc2ncnc(SCC(=O)NC(C)(C)C)c2c1C,-0.9,.,12,1.6,15,-1.7%,2%
COc1ccc(-c2cc(C(=O)Nc3ccccc3SC)no2)cc1,1.7,-1.3%,6,-0.8,3,0.6%,17%
CSc1ncccc1C(=O)OCC(=O)NC(=O)NCCC(C)C,-1.7,-6.2%,-3,2.6,23,-1.2%,14%
Cc1cccc(Cn2c(C(=O)OC(C)C)cc3c2ccn3C)c1,0.2,-16%,6,-1.0,-10,-0.3%,-16%
O=C(OCc1c(-c2ccccc2)ncc2ccccc12)N1CCOCC1,.,-7.1%,-14,-0.2,-2,-1.5%,.
O=C(C[C@H]1C/C=C\C[C@H](NC(=O)OCC2c3ccccc3-c3ccccc32)C(=O)OC[C@H](Cc2ccccc2)NC1=O)N[C@H](CO)Cc1ccccc1,.,1.6%,-7,1.1,.,7.1%,.
COc1ccc(C)cc1-n1nnc(S(=O)(=O)c2ccc(C)cc2)c1C,.,-0.6%,6,1.4,.,2.9%,.
